Assay outcomes as filed in PubChem.
Autofluor counter: compound fluorescence in toxin protease inhibitor counterscreen. AID 624483. fluorescence intensity (concentration not given with the values). compound autofluorescence counterscreen, microsphere flow cytometry; active compounds read high. 360,000 tested, 3.1% active;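 active = at least 3 SD above the mean of all compounds, about 16000 in these data; inconclusive = too few beads counted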;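 also: 100 nL of 1 mM stock went into each well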
BJeLR lethal: MLPCN primary cell-based screen for lethality selective to Ras in HRASV12 cells | 300,000 tested, 0.17% active | AID 1554, 2009 | BJeLR (HRASV12) viability, CellTiter-Glo ATP luminescence, 48 h; reference of the scale not given here | inhibition, % (test concentration not listed);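 active = replicate mean above 50%; inconclusive = above 50% but judged a plate artefact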;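 also: 50 nL library stock added to about 25 µL; numbers are from one replicate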
PrP UTR inh: inhibition of PrP 5' UTR reporter expression; cell-based PrP 5' UTR mRNA reporter, plate reader; inhibition, % (test concentration not listed); 340,000 tested, 0.35% active;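 active = every replicate at 50% or more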;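 also: 0 = median of the neutral control wells; tested in H4 reporter cells; numbers are from one replicate; inactives centre near -14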
Sa ugtP lethal: growth inhibition of ugtP-null S. aureus, primary screen, RN4220 ugtP deletion, OD600. 16 h; some inactives read as strong as hits. growth inhibition, % (no concentration beside the values). 330,000 tested, 0.54% active;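 active = z-score under -3 and OD600 up to 0.15 on both plates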;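 also: plate controls were untreated wells for no effect and antibiotic for full effect; wells of about 80 µL received 100 nL stock; the first replicate is given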
Mtb hypoxia inh: PubChem AID 1159583; M. tuberculosis hypoxia-regulated fluorescent reporter, fluorescence; fluorescence inhibition, % (concentration not given with the values); 300,000 tested, 0.1% active;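 active = 35 to 45% if threefold the growth effect, above 45% if 1.5-fold the growth effect; inactive = the rest, general growth blockers included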;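 also: wells of about 50 µL received 100 nL stock; 0% = vehicle wells and 100% = reference inhibitor wells; whole bacteria with a GFP reporter of the hypoxia response; strong numbers were not always called active; many hits fall short of the cut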
Sa RN4220 lethal: growth inhibition of S. aureus RN4220, primary screen, OD600; 16 h; inhibition, % (concentration not given with the values); 330,000 tested, 0.33% active; AID 1259311, 2017;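 active = z-score of -3 or lower and OD600 up to 0.18 on both plates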;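 also: plate controls were untreated cells for no effect and reference antibiotic for full effect; stock transfer was 100 nL into about 80 µL; one replicate is shown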
Mtb hypoxia inh growth: further read-out of Mtb hypoxia inh, marked with its call; growth inhibition, %; measured here: M. tuberculosis growth (absorbance);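 0% = vehicle and 100% = reference antibiotic; read after six days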
Starred values were filed as active, the others as inactive; ? = inconclusive; · = not tested or not shown.

SMILES | Autofluor counter | BJeLR lethal | PrP UTR inh | Sa ugtP lethal | Mtb hypoxia inh | Mtb hypoxia inh growth | Sa RN4220 lethal
Cc1ccc(-c2nc3ccc(C)cn3c2CC(=O)N(C)C)cc1 | 5331 | 0 | -8 | -2 | 3 | 4 | 5.4
CC1=CC2=NC(=O)CC(C)(C(=O)N(CC(=O)NC(C)(C)C)Cc3cccs3)N2C=C1 (configuration not stated) | 9049 | 7 | 18 | -1 | 6 | 7 | 1.8
CN(C)C(=O)CCc1ccc2c3c([nH]c2c1)[C@]1(C)[C@@H](C(=O)N2CCCCC2)C[C@H](CC(=O)NCc2ccco2)C(=O)N1CC3 | 3743 | · | -9 | -1 | -12 | 8 | 3.2
CCC(=O)N1CCc2cc(S(=O)(=O)NC(CC(C)C)C(=O)N3CCc4ccccc43)ccc21 (configuration not stated) | ? | · | 2 | -4 | 1 | 3 | 0.2
Cc1ccc(C(=O)NCc2ccco2)cc1Br | 14302 | -5 | -2 | -4 | · | · | 5.1
COc1ccc(C2=NN(C(=O)CCC(=O)O)C(c3ccc(OC)c(OC)c3)C2)cc1 (configuration not stated) | 3099 | -4 | 4 | 4 | -3 | -1 | 2.3
Cc1cccc(NC(=O)CSCc2cc(=O)n3nc(C4CC4)sc3n2)c1 | 5286 | -6 | -10 | -4 | -5 | -2 | -2.9
CCOC(C)=Nn1c2nc3ccccc3nc2c2c(=O)n(C3CCCC3)c(C)nc21 | · | · | · | -8 | -7 | 6 | 5.8
COc1ccc(NC(=S)N2CCN(C(=O)c3ccccc3)CC2)cc1 | 4343 | -4 | -13 | 1 | 3 | 1 | 0.0
CC(=O)c1ccc(N2CCN(C(=O)COc3ccc4c(c3)CCC4)CC2)cc1 | 5471 | -14 | -2 | -1 | 3 | 10 | 4.9
CN(C)/C(CN1CCOCC1)=C1\N=C(c2ccccc2)OC1=O | 23718* | 0 | -21 | 0 | -4 | -1 | -1.5
COc1ccc(NC(=O)C(=O)NCC(c2ccco2)N2CCc3ccccc3C2)cc1 (configuration not stated) | ? | -3 | 3 | 6 | 1 | 0 | -1.8
CCCCN(CCCC)Cc1ccc(C(=O)NN)o1 | 2522 | -2 | -8 | 2 | 1 | 5 | -0.1
CCOC(=O)c1ccccc1-c1csc(N)n1 | 3662 | 0 | -18 | 0 | 2 | 20 | 2.7
Cc1ccc(C)c(NC(=O)CN(C)S(=O)(=O)c2cccc3cccnc23)c1 | 3919 | -4 | -28 | -3 | -6 | -1 | -1.9
CCCN1CCC(=O)N(C(CSc2ccccc2)CC(C)C)CC1 (configuration not stated) | · | · | · | 1 | -4 | 6 | 7.8
COc1cc(C=NNC(=O)CSc2cc(C)c(Br)cc2C)ccc1O | · | · | · | 6 | 7 | 7 | 16
O=C(NCCNc1nccc(C(F)(F)F)n1)c1cccc(C(F)(F)F)c1 | 3679 | -3 | -10 | -1 | 14 | 7 | 3.8
COc1ccccc1OCCn1cc(/C=C(\C#N)C(=O)NCc2ccco2)c2ccccc21 | 2083 | 0 | -4 | -10 | -9 | -7 | -3.5
COc1ccc(OC)c(C(=O)c2coc3ccc(OC)cc23)c1 | 2952 | 5 | -17 | -4 | 6 | -1 | -4.4
CC(C)(C)c1cc[n+](-c2[nH]c(=O)sc2C=NNC(=O)c2ccccc2[O-])cc1 | · | · | · | 0 | 1 | 9 | -2.5
CCc1nnc(NS(=O)(=O)c2ccc(N/C=C\C(=O)c3ccc(C)cc3)cc2)s1 | 4226 | -5 | -21 | 7 | · | · | 1.3
Clc1ccc(-c2nc3n(n2)Cc2ccccc2-3)cc1 | 9702 | 5 | -45 | -18 | 4 | 11 | -1.4
COc1ccc(S(=O)(=O)N(CC(N)=O)C2CCCCC2)cc1Cl | 2147 | 1 | -10 | -4 | · | · | -2.5
Cc1ccc(-n2c(O)c(/C=N/N3CCCCC3c3cccnc3)c(=O)[nH]c2=S)cc1 (configuration not stated) | 2300 | 7 | 0 | · | · | · | ·

Three entries picked at random from those above:
SMILES | Autofluor counter | BJeLR lethal | PrP UTR inh | Sa ugtP lethal | Mtb hypoxia inh | Mtb hypoxia inh growth | Sa RN4220 lethal
COc1ccc(NC(=S)N2CCN(C(=O)c3ccccc3)CC2)cc1 | 4343 | -4 | -13 | 1 | 3 | 1 | 0.0
CCOC(C)=Nn1c2nc3ccccc3nc2c2c(=O)n(C3CCCC3)c(C)nc21 | · | · | · | -8 | -7 | 6 | 5.8
Cc1cccc(NC(=O)CSCc2cc(=O)n3nc(C4CC4)sc3n2)c1 | 5286 | -6 | -10 | -4 | -5 | -2 | -2.9

Later entries:
SMILES | Autofluor counter | BJeLR lethal | PrP UTR inh | Sa ugtP lethal | Mtb hypoxia inh | Mtb hypoxia inh growth | Sa RN4220 lethal
CCc1cc2c(=O)oc(-c3ccc(F)cc3)nc2s1 | 3775 | -8 | -25 | 1 | 12 | 4 | 9.3
Cc1cc(-c2nnc(SCC(=O)Nc3ccccc3F)n2N)n[nH]1 | 4231 | -5 | 0 | 1 | 1 | -3 | 1.7
Cn1c(=O)[nH]c(=O)c2c1nc(CN1CCOCC1)n2Cc1ccc(F)cc1 | 4226 | · | -8 | -5 | 2 | 5 | 5.5
O=S(=O)(c1cccc(Cn2nnc(-c3ccccc3)n2)c1)N1CCOCC1 | 4905 | · | -9 | 8 | 9 | 10 | 8.3
CC(=O)c1c(N2CCCCC2)nc(=S)n(Cc2ccccc2)c1C | 6242 | 0 | -19 | -13 | 2 | -3 | 5.0
CN(C)CCNC(=O)Nc1ccc([N+](=O)[O-])cc1 | 4163 | 2 | -23 | 7 | 10 | 2 | 2.6
Cc1ccc(-n2nnnc2SCC(=O)Nc2ccc(N3CCN(C)CC3)cc2)c(C)c1 | 5505 | 0 | -21 | -1 | 11 | 10 | -3.3
CN(C(=O)Cn1c(=O)oc2ccccc21)C1CCCCC1 | 3868 | · | -11 | 2 | 1 | 8 | 1.4
COc1ccc(C(=O)N(C)CC(O)c2ccccc2)cc1OC1CCN(C(C)=O)CC1 (configuration not stated) | · | -11 | 8 | 3 | 7 | 6 | 0.3
OCCC1CN(Cc2cnc(N3CCCC3)s2)CCN1Cc1ccccc1 (configuration not stated) | 3283 | 5 | -16 | 4 | 13 | 5 | 7.8
Cc1cc(NC(=O)Cc2ccccc2C)no1 | 3957 | 4 | -8 | 4 | 14 | 5 | -1.8
O=C(NCC(O)c1ccccc1)Nc1cccs1 (configuration not stated) | 3368 | 4 | -27 | 1 | 3 | -2 | 1.0
COc1cc2c(cc1OC)CN(C(=O)c1cc(S(=O)(=O)N3CCOCC3)ccc1Cl)CC2 | 6518 | 2 | -11 | 3 | -10 | -11 | -1.8
COc1cc(Cl)c(C)cc1NC(=S)NN | 4471 | 4 | -30 | 0 | 1 | 5 | -0.2
COc1ccc(S(=O)(=O)N2CCN(C(=O)C3CC3)CC2)cc1Br | ? | · | · | 3 | -1 | 4 | 4.8
[O-][N+](=C(c1ccccc1)c1ccccc1)c1ccccc1 | 3445 | · | -16 | -3 | 2 | 2 | -1.0
FC(F)(F)c1cccc(/C=N/NC(=S)NC2CCCCC2)c1 | 4797 | 4 | -15 | · | · | · | ·
CCOc1cc(C(c2c(C)[nH][nH]c2=O)c2c(C)[nH][nH]c2=O)ccc1OC(=O)c1cccc([N+](=O)[O-])c1 | 19908* | 15 | -12 | -23 | 7 | 4 | 4.4
CCOC(=O)c1c(-n2c(C)cc(C=C3C(=O)NC(=O)NC3=O)c2C)sc2c1CCCC2 | 6939 | -8 | -26 | -8 | 5 | 7 | -0.6
Cc1cc(C(=O)CSc2nc3ccccc3n2CCC#N)c(C)n1Cc1cccs1 | 12378 | 22 | -2 | -14 | -5 | 8 | -0.2
COc1ccccc1-c1nnc(SCC(=O)NNC(=O)c2ccccc2F)n1C | 3898 | · | -14 | 1 | 7 | -2 | 4.1
Cc1ccnc(N2CCCC(C(=O)Nc3nnc(C)s3)C2)n1 (configuration not stated) | 10963 | 0 | -20 | -1 | -3 | 9 | 2.7
COCCN(CC(=O)Nc1cccc(C)c1C)C(=O)c1cc(S(=O)(=O)N2CCCC2)ccc1C | 3702 | · | -1 | 2 | 4 | -2 | 2.7
Cc1cc(NC(=O)CSCC(=O)OC(C)C(=O)N(C)Cc2ccccc2)no1 (configuration not stated) | 6775 | -4 | -12 | -1 | 3 | 1 | 2.6
COc1ccc(S(=O)(=O)N2CCCC2)cc1C(=O)N1CCOCC1 | 3792 | -13 | -21 | -3 | 11 | 7 | 2.5

Look-ups from the entries so far:
CN(C)/C(CN1CCOCC1)=C1\N=C(c2ccccc2)OC1=O in Sa ugtP lethal → 0
CCC(=O)N1CCc2cc(S(=O)(=O)NC(CC(C)C)C(=O)N3CCc4ccccc43)ccc21 (configuration not stated) in Sa ugtP lethal → -4
COc1ccccc1-c1nnc(SCC(=O)NNC(=O)c2ccccc2F)n1C in Mtb hypoxia inh → 7
O=C(NCCNc1nccc(C(F)(F)F)n1)c1cccc(C(F)(F)F)c1 in Sa RN4220 lethal → 3.8
Cc1ccnc(N2CCCC(C(=O)Nc3nnc(C)s3)C2)n1 (configuration not stated) in Autofluor counter → 10963

Next section
SMILES | Autofluor counter | BJeLR lethal | PrP UTR inh | Sa ugtP lethal | Mtb hypoxia inh | Mtb hypoxia inh growth | Sa RN4220 lethal
CN(C(=O)COc1cc(=O)n(C)c2ccccc12)c1ccc(Cl)cc1 | 5757 | 0 | -16 | · | · | · | ·
Cc1ccc2c(c1)N(CC(=O)NCCCN1CCCCC1C)C(=O)c1cccnc1O2 (configuration not stated) | 5639 | -17 | -27 | 3 | -9 | 4 | 3.1
Cc1ccc(-c2nnc(N(C)C(=O)c3ccncc3)s2)cn1 | 3653 | 4 | -20 | 5 | · | · | 1.0
O=C(CCCN1C(=O)/C(=C/c2ccco2)SC1=S)Nc1cccc(C(=O)O)c1 | 4215 | -9 | -14 | 5 | 18 | 9 | 4.4
O=C(CCc1nnc(Cc2ccc3c(c2)OCO3)o1)N(CC1CCC1)CC1CCCO1 (configuration not stated) | 4338 | 0 | -21 | 4 | -2 | 4 | 0.3
O=C(CN1C(=O)S/C(=C/c2cccs2)C1=O)N1CCOCC1 | 2398 | 3 | -12 | · | · | · | ·
CCN(CC(=O)Nc1c(F)cccc1F)C(=O)c1nc2nccc(C)n2n1 | 3859 | · | -31 | 1 | -1 | 3 | 2.2
CCOC(=O)c1ccc(NCc2ccc(N(C)C)cc2)cc1 | 9393 | -10 | -11 | 2 | 5 | 2 | 2.9
COc1ccc(NC(=S)N2CCN(C(=O)c3ccco3)CC2)cc1 | 3365 | -3 | -8 | -2 | 3 | -3 | -0.1
O=C(NCc1ccco1)c1ccc(Cl)c(S(=O)(=O)N2CCc3ccccc32)c1 | 2045 | -3 | -33 | -5 | 0 | 8 | -4.1
Cc1cc(C)nc(NC(=O)CSc2ncccn2)n1 | · | 2 | · | 5 | 16 | 1 | 4.7
CC1CCN(C(=O)CSc2nc3ccccc3[nH]2)CC1 | 11086 | 6 | -83 | -3 | 7 | 7 | -0.7
COCCNC(=O)CCCCCNS(=O)(=O)c1ccc(C)cc1 | 9102 | 5 | -27 | -2 | 19 | 6 | 3.3
CCNS(=O)(=O)c1ccc(CCC(=O)NCc2ccccn2)cc1 | 4071 | 6 | -4 | 3 | -14 | -10 | 3.7
COc1ccc(C(=O)Nc2ccc3c(c2)OCO3)cc1OC | ? | 1 | -59 | -1 | 5 | 6 | 1.6
CC1CCCCC12NC(=O)N(CC(=O)N1CCN(c3ccccc3)CC1)C2=O (configuration not stated) | 4067 | · | -14 | 4 | 4 | 1 | 3.1
Cc1nn(Cc2ccc([N+](=O)[O-])cc2)c(=O)n1-c1ccccc1 | 17702* | 14 | -15 | -4 | 9 | 6 | 5.6
O=C(CSc1nc2ccccc2o1)Nc1cc(C(F)(F)F)ccc1N1CCOCC1 | 2705 | 5 | -13 | -6 | · | · | -2.9
CC(C)=CC(=O)OCC(=O)Nc1nc(C)c(Cl)cc1Cl | 4293 | -17 | -18 | -7 | 5 | 3 | 0.4
CC(N=C(NS(=O)(=O)c1ccc(Cl)cc1)c1ccccc1)C(=O)O (configuration not stated) | 8365 | 3 | -6 | -9 | -1 | 4 | -2.8
CCOC(=O)c1c(C)[nH]c(C(=O)OCc2ccc(F)cc2)c1C | 5803 | -6 | -100 | 0 | 8 | 0 | 2.2
Cc1ccc(NC(=O)c2cc(S(=O)(=O)N3CCOCC3)c(Br)s2)cc1 | 2547 | 8 | -25 | -6 | -12 | 1 | -0.3
COc1ccc(S(=O)(=O)N(CCc2ccccc2)CC(=O)O)cc1 | 5588 | -3 | -6 | -6 | -5 | 2 | -3.3
CCCCC#Cc1cncc(C(=O)NN=Cc2cccc(OC)c2)c1 | · | · | · | 7 | 5 | -6 | 1.8
